Compound activity from PubChem.
Env_fusion_inh = HIV envelope-mediated fusion inhibition. hit rate 1.1% among 360,000. HeLa-JRFL Env/CEM21 cell fusion, luciferase. inhibition, % at 12.3 µM. AID 651610;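 active = mean replicate inhibition score of at least 50 and every replicate individually at or above 50; inconclusive = only one of the two criteria met; inactive = mean below 50 and not all replicates reaching 50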;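 note: 0% = plate neutral controls and 100% = maraviroc near 300 nM; one replicate is shown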
Yeast_UUG_start = yeast start codon fidelity modulation; hit rate 0.13% among 350,000; S. cerevisiae UUG-firefly luciferase reporter, luminescence/redox ratio; activity score, % at 18.7 µM; AID 602363;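 active = replicate mean at a twofold rise or more, about +100% in these data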;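 note: firefly luciferase made from a UUG start codon reports start codon fidelity; reporter light over untreated wells divided by growth signal over untreated wells; some hits fall short of that in this replicate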
An asterisk follows results filed as active; ? = inconclusive; [ ] = another dose, or the depositor's remark. An excerpt; rates above refer to the full screens.

SMILES Env_fusion_inh Yeast_UUG_start
CCC(=O)N(C)C[C@@H]1Oc2cc(C#CC3(O)CCCC3)ccc2S(=O)(=O)N([C@@H](C)CO)C[C@@H]1C -24[16.7_µM] -4
C/C=C/c1ccc2c(c1)O[C@H](CN(C)Cc1ccc(C(=O)O)cc1)[C@H](C)CN([C@H](C)CO)S2(=O)=O -28[16.7_µM] 192*
C[C@@H]1CN([C@H](C)CO)C(=O)c2cc(NC(=O)Cc3cn(C)c4ccccc34)ccc2O[C@H]1CN(C)S(=O)(=O)c1ccc(Cl)cc1 -2[16.7_µM] -23
C[C@@H]1CCCCO[C@@H](CN(C)S(=O)(=O)c2cn(C)cn2)[C@@H](C)CN([C@H](C)CO)C(=O)c2cc(NC(=O)c3ccccc3)ccc2O1 -24[16.7_µM] -9
CCC(=O)N[C@H]1CC[C@H](CCNC(=O)Nc2ccc(C(F)(F)F)cc2)O[C@H]1CO -2[16.7_µM] 21
CO[C@H]1CN(C)C(=O)c2cc(NC(C)=O)ccc2OC[C@H](C)N(Cc2nccs2)C[C@@H]1C 11[16.7_µM] 4
O=C(C[C@@H]1CC[C@H](NC(=O)c2ccccn2)[C@H](CO)O1)NCc1cccc(F)c1 -1[16.7_µM] -1
C[C@@H]1CN([C@@H](C)CO)C(=O)c2cc(NC(=O)Nc3ccc4c(c3)OCO4)ccc2O[C@@H](C)CCCCO[C@H]1CN(C)C -13[16.7_µM] 10
O=C(C[C@@H]1C[C@H]2c3cc(NS(=O)(=O)c4ccc(F)cc4)ccc3O[C@H]2[C@@H](CO)O1)NCc1ccc(Cl)cc1 12[16.7_µM] -1
COc1ccc(S(=O)(=O)N(C)C[C@H]2OCCCC[C@@H](C)Oc3ccc(NC(=O)Nc4ccc(F)cc4)cc3C(=O)N([C@H](C)CO)C[C@@H]2C)cc1 2[16.7_µM] -6
C[C@@H]1CCCCO[C@@H](CN(C)S(=O)(=O)c2ccc(F)cc2)[C@H](C)CN([C@@H](C)CO)C(=O)c2cc(NS(=O)(=O)c3cn(C)cn3)ccc2O1 -32[16.7_µM] -7
C[C@@H]1CCCCO[C@@H](CN(C)C(=O)C2CCCCC2)[C@@H](C)CN([C@H](C)CO)C(=O)c2cc(N(C)C)ccc2O1 3[16.7_µM] 15
Cc1ccc(S(=O)(=O)N[C@@H]2CC[C@@H](CCNC(=O)Cc3ccccn3)O[C@H]2CO)cc1 5[16.7_µM] 0
C[C@H](CO)N1C[C@H](C)[C@@H](CN(C)C(=O)c2ccncc2)OCc2cn(nn2)CCCC1=O 17[16.7_µM] -17
O=C(C[C@H]1CC[C@H](NC(=O)Nc2cc(F)ccc2F)[C@@H](CO)O1)Nc1ccc(-c2ccccc2)cc1 47[16.7_µM] -18
CCCC(=O)Nc1ccc2c(c1)OC[C@H](C)N(C)C[C@@H](C)[C@H](OC)CN(C)C2=O 0[16.7_µM] -6
N#C[C@@H]1[C@H](c2ccc(C3=CCCC3)cc2)[C@H](CO)N1S(=O)(=O)c1cccc(F)c1 -1[16.7_µM] 1
C/C=C/c1ccc2c(c1)O[C@@H](CN(C)C(=O)Nc1ccccc1)[C@H](C)CN([C@@H](C)CO)S2(=O)=O -18[16.7_µM] 2
COc1ccccc1-c1ccc2c(c1)O[C@H](CN(C)C(C)=O)[C@@H](C)CN([C@@H](C)CO)S2(=O)=O 8[16.7_µM] 15
C[C@@H]1CN([C@H](C)CO)C(=O)c2cc(C#Cc3ccccc3)cnc2O[C@H]1CN(C)Cc1ccccn1 -6[16.7_µM] 2
CC(C)CC#Cc1ccc2c(c1)O[C@@H](CN(C)C(=O)Cc1ccccn1)[C@@H](C)CN([C@@H](C)CO)S2(=O)=O -20[16.7_µM] -3
CN(C)C(=O)C[C@H]1C[C@@H]2c3cc(NC(=O)Nc4ccccc4)ccc3O[C@@H]2[C@H](CO)O1 1[16.7_µM] -10
C[C@@H]1CCCCO[C@@H](CN(C)S(=O)(=O)c2cn(C)cn2)[C@@H](C)CN([C@@H](C)CO)C(=O)c2cc(NS(=O)(=O)c3cccs3)ccc2O1 -8[16.7_µM] 17
O=C(NCC[C@@H]1CC[C@H](NC(=O)C2CCCC2)[C@H](CO)O1)c1cnccn1 -11[16.7_µM] 13
CCCC#Cc1ccc2c(c1)O[C@@H](CN(C)CCC)[C@H](C)CN([C@@H](C)CO)S2(=O)=O 22[16.7_µM] -3

A stretch from further up, as a working copy:
SMILES Env_fusion_inh Yeast_UUG_start
C[C@@H]1CCCCO[C@@H](CN(C)S(=O)(=O)c2cn(C)cn2)[C@@H](C)CN([C@@H](C)CO)C(=O)c2cc(NS(=O)(=O)c3cccs3)ccc2O1 -8[16.7_µM] 17
O=C(NCC[C@@H]1CC[C@H](NC(=O)C2CCCC2)[C@H](CO)O1)c1cnccn1 -11[16.7_µM] 13
CCCC#Cc1ccc2c(c1)O[C@@H](CN(C)CCC)[C@H](C)CN([C@@H](C)CO)S2(=O)=O 22[16.7_µM] -3

Carrying on:
SMILES Env_fusion_inh Yeast_UUG_start
C[C@@H]1CN([C@H](C)CO)C(=O)c2cc(NS(C)(=O)=O)ccc2O[C@@H](C)CCCCO[C@@H]1CN(C)C(=O)CCC(F)(F)F -8[16.7_µM] 14
CC(=O)Nc1ccc2c(c1)C(=O)N(C)[C@@H]1CC[C@H](CC(=O)NCC3CCCCC3)O[C@@H]1CO2 11[16.7_µM] -3
COc1ccc(S(=O)(=O)N(C)C[C@@H]2Oc3c(NC(=O)Nc4ccc(C(F)(F)F)cc4)cccc3C(=O)N([C@@H](C)CO)C[C@@H]2C)cc1 -1[16.7_µM] 6
C[C@H](CO)N1C[C@H](C)[C@@H](CN(C)C(=O)Nc2ccc(C(F)(F)F)cc2)OCCCC[C@H](C)Oc2ccc(NC(=O)Cc3ccccc3)cc2C1=O ? 16
CC(C)NC(=O)N[C@H]1CC[C@H](CCNC(=O)C2CCOCC2)O[C@@H]1CO -245[16.7_µM] -16
CO[C@H]1CN(C)C(=O)c2ccc(NC(=O)C3CC3)cc2OC[C@@H](C)N(C(C)=O)C[C@@H]1C 62*[16.7_µM] 3
C[C@H](CO)N1C[C@H](C)[C@@H](CN(C)C(=O)CN(C)C)Oc2cc(C#CCN(C)C)ccc2S1(=O)=O -9[16.7_µM] -2
CCCC#Cc1cnc2c(c1)C(=O)N([C@H](C)CO)C[C@H](C)[C@@H](CN(C)C(=O)c1cccc(F)c1)O2 -8[16.7_µM] 12
Cc1noc(C)c1S(=O)(=O)Nc1ccc2c(c1)C(=O)N([C@@H](C)CO)C[C@H](C)[C@@H](CN(C)Cc1ccc(-c3ccccc3)cc1)O2 -1[16.7_µM] 9
CN1C(=O)c2cc(NC(=O)c3ccc(F)cc3)ccc2OC[C@@H]2O[C@@H](CC(=O)N3CCOCC3)CC[C@@H]21 -10[16.7_µM] 15
C[C@@H]1CN([C@@H](C)CO)C(=O)c2cc(NS(=O)(=O)c3ccccc3)ccc2O[C@@H](C)CCCCO[C@@H]1CN(C)C(=O)c1ccccc1 2[16.7_µM] 1
CC(C)CC#Cc1cnc2c(c1)C(=O)N([C@@H](C)CO)C[C@H](C)[C@@H](CN(C)C(=O)c1ccccc1F)O2 9[16.7_µM] 4
C[C@H]1CN([C@@H](C)CO)C(=O)Cc2cc(NS(=O)(=O)c3cccs3)ccc2O[C@@H]1CN(C)S(C)(=O)=O 3[16.7_µM] -1
CO[C@H]1CN(C)C(=O)c2cc(NC(=O)C3CCOCC3)ccc2OC[C@@H](C)N(C(C)=O)C[C@H]1C 8[16.7_µM] 1
CN(C)CC(=O)N[C@@H]1C=C[C@@H](CC(=O)NCc2ccccc2F)O[C@@H]1CO -6[16.7_µM] -3
COc1cccc(S(=O)(=O)Nc2ccc3c(c2)[C@@H]2C[C@@H](CC(=O)NCC(F)(F)F)O[C@@H](CO)[C@@H]2O3)c1 -3[16.7_µM] 12
CCC(=O)N(C)C[C@@H]1Oc2cc(C#Cc3cccnc3)ccc2S(=O)(=O)N([C@H](C)CO)C[C@H]1C 29[16.7_µM] 9
C[C@@H]1CCCCO[C@H](CN(C)C(=O)C2CCCCC2)[C@H](C)CN([C@H](C)CO)C(=O)c2cc(NS(=O)(=O)c3ccc(F)cc3)ccc2O1 -14[16.7_µM] 12
CC(C)C#Cc1ccc([C@H]2[C@H](C#N)N(C(=O)CN(C)C)[C@H]2CO)cc1 -9[16.7_µM] 21
C[C@@H]1CN([C@@H](C)CO)C(=O)c2cc(C#Cc3ccc(F)cc3)cnc2O[C@@H]1CN(C)Cc1ccccn1 7[16.7_µM] -13
Cc1ccc(S(=O)(=O)Nc2ccc3c(c2)C(=O)N([C@@H](C)CO)C[C@@H](C)[C@H](CN(C)C(=O)Cc2ccccc2)OCCCC[C@H](C)O3)cc1 -46[16.7_µM] 1
C[C@@H]1CN([C@H](C)CO)C(=O)c2cccc(NC(=O)Nc3cccc4ccccc34)c2O[C@@H]1CN(C)C(=O)NC1CCCCC1 -24[16.7_µM] -7
CC(C)C#Cc1cnc2c(c1)C(=O)N([C@H](C)CO)C[C@@H](C)[C@@H](CN(C)C(=O)Nc1ccc(F)cc1)O2 0[16.7_µM] 2
COCC(=O)N(C)C[C@@H]1Oc2ncc(C#Cc3ccc(F)cc3)cc2C(=O)N([C@H](C)CO)C[C@@H]1C 10[16.7_µM] 21
C[C@H](CO)N1C[C@H](C)[C@@H](CN(C)C)Oc2ccc(NC(=O)NC3CCCCC3)cc2C1=O 8[16.7_µM] -4

Arranged by length of the SMILES (low to high): some entries from above.
SMILES Env_fusion_inh Yeast_UUG_start
CN(C)CC(=O)N[C@@H]1C=C[C@@H](CC(=O)NCc2ccccc2F)O[C@@H]1CO -6[16.7_µM] -3
C[C@@H]1CN([C@@H](C)CO)C(=O)c2cc(NS(=O)(=O)c3ccccc3)ccc2O[C@@H](C)CCCCO[C@@H]1CN(C)C(=O)c1ccccc1 2[16.7_µM] 1
COc1ccc(S(=O)(=O)N(C)C[C@@H]2Oc3c(NC(=O)Nc4ccc(C(F)(F)F)cc4)cccc3C(=O)N([C@@H](C)CO)C[C@@H]2C)cc1 -1[16.7_µM] 6

Gathered by group: the compounds so far with a Cl atom.
SMILES Env_fusion_inh Yeast_UUG_start
C[C@@H]1CN([C@H](C)CO)C(=O)c2cc(NC(=O)Cc3cn(C)c4ccccc34)ccc2O[C@H]1CN(C)S(=O)(=O)c1ccc(Cl)cc1 -2[16.7_µM] -23
O=C(C[C@@H]1C[C@H]2c3cc(NS(=O)(=O)c4ccc(F)cc4)ccc3O[C@H]2[C@@H](CO)O1)NCc1ccc(Cl)cc1 12[16.7_µM] -1

New compounds follow:
SMILES Env_fusion_inh Yeast_UUG_start
Cc1ccc(S(=O)(=O)N(C)C[C@@H]2Oc3ccc(NC(=O)Nc4ccc(F)cc4)cc3CC(=O)N([C@H](C)CO)C[C@@H]2C)cc1 37[16.7_µM] -12
C[C@@H]1CCCCO[C@@H](CN(C)C(=O)CCCN(C)C)[C@@H](C)CN([C@H](C)CO)C(=O)c2cc(NC(=O)Nc3ccc(F)cc3)ccc2O1 -2[16.7_µM] -22
C[C@H](CO)N1C[C@H](C)[C@H](CN(C)C(=O)NC2CCCC2)Oc2cc(C#Cc3ccc(F)cc3)ccc2S1(=O)=O 63*[16.7_µM] -5
N#C[C@H]1[C@@H](c2ccccc2)[C@@H](CO)N1C(=O)Cc1ccccn1 20[16.7_µM] 4
CN(C)C(=O)C[C@@H]1C=C[C@H](NC(=O)C2CC2)[C@H](CO)O1 -14[16.7_µM] -7
Cc1noc(C)c1NC(=O)Nc1ccc2c(c1)C(=O)N([C@H](C)CO)C[C@@H](C)[C@@H](CN(C)C(=O)NC1CCCCC1)OCCCC[C@H](C)O2 12[16.7_µM] 12
CNC(=O)C[C@H]1CC[C@@H]2[C@@H](COc3ccc(NC(=O)Nc4ccc(F)cc4)cc3C(=O)N2C)O1 19[16.7_µM] 4
CC(C)C#Cc1cnc2c(c1)C(=O)N([C@H](C)CO)C[C@@H](C)[C@H](CN(C)C(=O)CN1CCOCC1)O2 3[16.7_µM] -2
Cc1ccc(S(=O)(=O)N(C)C[C@@H]2OCCCC[C@@H](C)Oc3ccc(NS(=O)(=O)c4cn(C)cn4)cc3C(=O)N([C@H](C)CO)C[C@H]2C)cc1 -17[16.7_µM] -8
CC(C)CC#Cc1ccc2c(c1)O[C@@H](CN(C)C(=O)Cc1ccccc1)[C@H](C)CN([C@H](C)CO)S2(=O)=O 30[16.7_µM] 1
C[C@H](CO)N1C[C@H](C)[C@H](CN(C)S(=O)(=O)c2ccccc2)Oc2ccc(NC(=O)Nc3ccc4c(c3)OCO4)cc2C1=O 48[16.7_µM] -5
COCC#Cc1ccc2c(c1)O[C@@H](CN(C)C(=O)NC(C)C)[C@H](C)CN([C@H](C)CO)S2(=O)=O -8[16.7_µM] -1
O=C(Nc1ccc2c(c1)OCO2)N[C@H]1CC[C@H](CCNC(=O)C2CCCC2)O[C@@H]1CO -32[16.7_µM] 34
CCCC#Cc1ccc2c(c1)O[C@H](CN(C)C)[C@H](C)CN([C@H](C)CO)S2(=O)=O -9[16.7_µM] 3
CCCc1cn(CC[C@@H]2CC[C@H](NC(=O)C3CCOCC3)[C@H](CO)O2)nn1 0[16.7_µM] 4
COc1ccc(S(=O)(=O)N(C)C[C@@H]2Oc3ccc(NC(=O)Nc4ccccc4)cc3C(=O)N([C@H](C)CO)C[C@H]2C)cc1 5[16.7_µM] -1
COc1ccc(S(=O)(=O)Nc2ccc3c(c2)CC(=O)N([C@@H](C)CO)C[C@@H](C)[C@@H](CN(C)S(=O)(=O)c2ccc(OC)cc2)O3)cc1 0[16.7_µM] -2
C[C@H](CO)N1C[C@H](C)[C@@H](CN(C)Cc2ccncc2)Oc2ccc(NC(=O)NC3CCCCC3)cc2C1=O -32[16.7_µM] -12
C[C@H](NC(=O)C[C@H]1CC[C@@H](NC(=O)CN2CCOCC2)[C@@H](CO)O1)c1ccccc1 -4[16.7_µM] -14
C[C@H]1CN([C@@H](C)CO)C(=O)c2cc(-c3ccccc3)cnc2O[C@@H]1CN(C)C(=O)Cc1ccccc1 18[16.7_µM] -4
